High-throughput results (PubChem)
PK Bst – alters activity of Bacillus stearothermophilus pyruvate kinase. Potency, µM. partly purified Bacillus stearothermophilus pyruvate kinase, luminescence ATP production; ribose 5-phosphate activator present at AC10. 1.2% of 51,000 active; in the data active means potency below about 11 µM; inconclusive means mostly about 12 µM to 25 µM; inactive means weaker than that;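 the screen sought inhibitors and activators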;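 note: potency is the fitted concentration of half-maximal effect; scaled between full activation by ribose 5 phosphate and full inhibition by luteolin; about four in five hits inhibit and the cells do not say which; series up to 57 µM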
TsaE inh – displaces an ADP probe from E. coli YjeE (TsaE) | purified YjeE, fluorescence polarisation of a bound ADP probe | Potency, µM | 0.05% of 71,000 active | AID 605; active = well fitted falling curve; inconclusive = weaker or top-dose-only fall, or a rising curve; inactive = flat or poorly fitted curve;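 note: top concentration of the series not given in the record; excess ADP was the control for the full effect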
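Fluorescence polarization of a BODIPY Texas Red–ADP probe (2 uM) bound to purified YjeE (10 uM) was read after 15 min room-temperature incubation with compounds. Loss of polarization marks inhibitors; ADP serves as titrated control.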
Numbers without * were called inactive; i = inactive; x = no result given. Not all compounds are listed; count on the stated rates, not on these rows.

PK Bst	TsaE inh	SMILES
>57	i	CCCCNC(=O)c1ccccc1NC(=O)c1ccccc1N(C)S(C)(=O)=O
x	i	C=C(CC(=O)O)C(=O)O (tested in a mixture with another compound)
>57	i	Cc1ccc(C(C(=O)NCc2ccco2)N(CCc2ccccc2)C(=O)Cn2nnc3ccccc32)o1 (stereo not given)
>57	i	CCn1c(SCCOc2ccc(Cl)cc2)nnc1-c1cccs1
x	i	O=C(CCc1ccc(O)cc1)c1c(O)cc(O)cc1O
>57	i	Cc1cccc(N2CCN(C(c3cccs3)c3nnnn3C(C)(C)C)CC2)c1C (stereo not given)
>57	i	CCC(C)NC(=O)COc1ccc(S(=O)(=O)N2CCOCC2)cc1 (stereo not given)
x	i	COc1ccc(-c2cc(C(=O)NCc3cccnc3)no2)cc1OC
x	i	CC(C)C(=O)Nc1ccc([N+](=O)[O-])c(C(F)(F)F)c1
>57	i	O=C(NCC1CCS(=O)(=O)C1)NCC1CCS(=O)(=O)C1 (stereo not given)
x	i	c1ccc2oc(SCc3cn4ccccc4n3)nc2c1
>57	i	COCCN(C(=O)Nc1ccc(OC)cc1OC)C1CCN(C(C)C)CC1
>57	i	CCOC(=O)N1CCN(Cc2nc3c(c(=O)n(C)c(=O)n3C)n2CCCc2ccccc2)CC1
>57	i	COc1ccccc1-c1nnc2sc(COc3ccc(Cl)cc3Cl)nn12
x	i	Cc1cc(C)c2c(N)c(C(=O)Nc3nccs3)sc2n1
>57	i	Cc1cc(NC(=O)c2cc(-c3ccco3)on2)n(-c2ccccc2)n1
>57	i	COc1cc(C(=O)Nc2ccc(NC(=O)C3CC3)nc2)cc(OC)c1OC
>57	i	CC1(C)CC(=O)C2=C(C1)Nc1ncnn1C2c1ccccn1 (stereo not given)
i	i	COc1cccc(-c2nnc(Nc3nc4c(F)cccc4s3)o2)c1
>57	i	CCOc1cc(C2C(C(=O)c3ccco3)=C(O)C(=O)N2CCc2ccccc2)ccc1O (stereo not given)
>57	i	CCOC(=O)c1cnc(SCc2nc(N)nc(Nc3ccc(F)cc3)n2)nc1N
>57	i	O=C(CCN1C(=O)c2ccccc2C1=O)NCCC1=CCCCC1
x	i	CN(C)c1nc(N)nc(Nc2ccccc2C#N)n1
>57	i	Cn1c(CCNC(=O)c2ccco2)nc2cc(NS(=O)(=O)c3ccc(Cl)cc3)ccc21
>57	i	COc1ccc(OC)c(-c2cc(C(=O)Nc3c(C)nn(Cc4ccc(Cl)cc4)c3C)no2)c1
>57	i	Brc1ccccc1-c1nnc(-c2cccnc2)o1
x	i	CC(=O)N(CCCc1ccc(C(C)(C)C)cc1)CCCN(C)C
x	i	CCOc1ccc(OCC)c(NC(=O)C2CCCN(S(=O)(=O)c3cccs3)C2)c1 (stereo not given)
>57	i	CC(N=c1ccccn1C(=O)Nc1ccc(F)cc1)c1ccco1 (stereo not given)
>57	i	N#Cc1ccc(OCC(=O)N2CCN(S(=O)(=O)c3cccs3)CC2)cc1
>57	i	CCOc1ccc(NC(=O)CN2CCN(CC(=O)Nc3cc(OC)cc(OC)c3)CC2)cc1
>57	i	CCOc1ccccc1NC(=O)C1CCCN(C(=O)NCc2ccccc2)C1 (stereo not given)
x	i	CC1CCN(c2nc3c(c(=O)[nH]c(=O)n3C)n2CCCc2ccccc2)CC1
>57	i	CN1CCCCc2c1nc1c(c2N)CCCC1
x	i	CC(=O)N1[C@H](Cc2ccccc2)C=C[C@]1(C)C(=O)NCCN1CCOCC1
>57	i	C=CCn1c(SCC(=O)Nc2ccc3c(c2)OCO3)nc2ccccc2c1=O
>57	i	CCOC(=O)c1sc(N)c(C#N)c1COC(=O)CNC(=O)c1ccccc1
>57	i	Cc1ccccc1Cn1ccc(NC(=O)c2cnn3c(C(F)(F)F)cc(-c4ccco4)nc23)n1
x	i	COc1nc(-c2ccccc2)ccc1-c1noc(-c2ccccc2)n1
>57	i	O=C(Cn1nnc(-c2ccccc2Cl)n1)N1CCN(S(=O)(=O)c2ccc(Cl)cc2)CC1
x	i	c1ccc(CCNc2ccc3nncn3n2)cc1
x	i	O=C(CN(c1cccc(C(F)(F)F)c1)S(=O)(=O)c1ccccc1)N1CCOCC1
>57	79µM*	CCn1c(CSc2nnc(-c3cccnc3)n2-c2ccccc2C)nc2cc(C(=O)O)ccc21
>57	i	CN1CCN(CC(O)COCc2ccc3c(c2)OCO3)CC1 (stereo not given)
x	i	CCCCC(=O)Nc1ccc2oc(-c3cccnc3)nc2c1

Of the compounds above, 6 contain a furan ring, fused or not.
PK Bst	TsaE inh	SMILES
>57	i	Cc1ccc(C(C(=O)NCc2ccco2)N(CCc2ccccc2)C(=O)Cn2nnc3ccccc32)o1 (stereo not given)
>57	i	Cc1cc(NC(=O)c2cc(-c3ccco3)on2)n(-c2ccccc2)n1
>57	i	CCOc1cc(C2C(C(=O)c3ccco3)=C(O)C(=O)N2CCc2ccccc2)ccc1O (stereo not given)
>57	i	Cn1c(CCNC(=O)c2ccco2)nc2cc(NS(=O)(=O)c3ccc(Cl)cc3)ccc21
>57	i	CC(N=c1ccccn1C(=O)Nc1ccc(F)cc1)c1ccco1 (stereo not given)
>57	i	Cc1ccccc1Cn1ccc(NC(=O)c2cnn3c(C(F)(F)F)cc(-c4ccco4)nc23)n1

(next part)
PK Bst	TsaE inh	SMILES
>57	i	CC(=O)Nc1ccc2c(c1)n(C)c(=O)n2C
>26	x	Cc1ccc(NC(=O)Cn2nc(C)c3ccccc3c2=O)cc1
x	i	O=c1cnc2cnc(OCc3ccccc3)nc2n1Cc1ccc(F)cc1
>57	i	O=C(NCCN1CCOCC1)c1cccc(Cl)c1
x	i	CC1(C)Cc2c(c(-c3ccco3)nc3n[nH]c(N)c23)CO1
>57	i	COc1ccc(C(=O)Nc2ccccc2C(=O)NCc2ccco2)cc1OC
>57	i	Cc1cc(C)cc(C(=O)/C=C2\NC(=O)CS2)c1
>57	i	CCCc1cc(=O)oc2cc3oc(C)c(C)c3cc12
x	i	COc1ccc(-c2onc3ccc(Cl)cc23)cc1OC
x	i	O=C(O)[C@@H]1C[C@@H](C(=O)O)N1
>57	i	COc1cc(-c2noc(-c3ccccc3C(=O)NCc3ccco3)n2)cc(OC)c1OC
x	i	CCc1c2c(nc3ccc(OC)cc13)OC(C)C2 (stereo not given)
>57	i	COc1cc(OC)cc(-c2nnc(SCC(=O)N(C(C)C)C(C)C)o2)c1
>57	i	O=C(CN1C(=O)CCC1=O)Nc1ccc(Br)cc1
x	i	O=S(=O)(NCCc1cn2ccccc2n1)c1ccc(F)c(C(F)(F)F)c1
>57	i	Cc1ccc(C(=O)OCc2nnc(-c3ccccc3)o2)o1
x	i	CCN(CC)Cc1c(O)ccc2c(-c3ccccc3)cc(=O)oc12
>57	i	CN(Cc1nc2ccccc2n1C)C(=O)c1cccs1
>57	i	CC12CN3CC(C)(CN(C1)C3c1ccc(Br)cc1)C2 (stereo not given)
>57	i	c1ccc(COn2c(-c3ccccc3)nc3c2CCc2nonc2-3)cc1
>57	i	COCCn1c(N)c(C(=O)NCc2cccs2)c2nc3ccccc3nc21
x	i	CC(=O)Oc1ccc(N2C(=O)C3C4C=CC(O4)C3C2=O)cc1 (stereo not given)
>57	i	c1ccc2c(c1)CCCC2NC1=NCCC1 (stereo not given)
i	i	CCc1nc(Nc2ccc(N3CCN(C(C)=O)CC3)cc2)c2oc3ccccc3c2n1
>26	x	Cc1noc(COc2ccccc2OCC(O)CNC(C)(C)C)n1 (stereo not given)
>57	i	CC(=O)c1cccc(NC(=O)N2CCCC2C(=O)Nc2cc(C)ccc2C)c1 (stereo not given)
>57	i	CCOc1ccc2[nH]c(=O)c(CN(Cc3cccs3)Cc3nnnn3C(C)(C)C)cc2c1
>57	i	Cc1cc(O)c(/C=N/c2ccccn2)c(=O)o1
>57	i	CCN(CC)S(=O)(=O)c1csc(C(=O)NCc2ccccc2)c1
>57	i	CCOC(=O)C1CCN(C(=O)c2cccc(Cl)c2)CC1
x	i	O=C(O)Cc1ccc(NC(=O)C2CC=CCC2C(=O)O)cc1 (stereo not given)
x	i	COc1cccc(NC(=O)CCN2CCC(C(N)=O)CC2)c1
>57	i	COc1cc(/C=c2\s/c(=C(/C#N)C(=O)N3CCCC3)n(-c3ccccc3)c2=O)ccc1O
>57	i	CCc1nc2c3cnn(-c4cc(Cl)ccc4C)c3ncn2n1
>57	i	CCOC(=O)c1c(C)n(C)c2ccc(OCC(O)Cn3c(C)nc4ccccc43)cc12 (stereo not given)
x	i	COc1ncc2nc(-c3ccccc3)c(=O)n(CCc3ccccc3)c2n1
x	i	COc1ccc(-c2noc(COc3ccc(Cl)c(C)c3)n2)cc1
>57	i	CC1CCCC(C)N1C(=O)CSc1nnc(-c2c[nH]c3ccccc23)o1 (stereo not given)
>57	i	O=c1nc2scc(-c3ccccc3)n2c2ccccc12
>57	i	COc1cccc(CN(C)CC(=O)NC(=O)NCc2ccco2)c1
>57	i	CC(=O)NCCn1c(SCC(=O)NCc2ccco2)nc2ccccc2c1=O
x	i	Cc1cccc(C2Nc3ccccc3C(=O)N2CCc2ccccc2)n1 (stereo not given)
>57	i	COc1ccc(OCC(=O)N2CCN(C(=O)COc3ccccc3)CC2)cc1
>57	i	CCN(CC)C(=O)CSC1=Nc2ccccc2C2=NC(Cc3c[nH]c4ccccc34)C(=O)N12 (stereo not given)
>57	i	Cc1ccc(C(C)C)cc1S(=O)(=O)NCc1cccnc1
>57	i	CCn1c2ccccc2c2nn(C)c(=N)nc21
>57	i	CC(=O)c1cc2c(cc1NC(=O)CN1CCCCC1C)OCO2 (stereo not given)
x	i	C[N+](C)(C)CC(=O)N/N=C\c1c(O)ccc2ccccc12
x	i	Cn1ccnc1C[C@@](C)(O)c1ccccc1
>57	i	CN1C(=O)CSc2ccc(NC(=O)N3CCOCC3)cc21
>57	i	O=C(Nn1c(-c2ccccc2)nc2ccccc2c1=O)c1ccco1
>57	i	CCOC(=O)c1ccc(CC(=O)c2oc3cc(O)ccc3c2C)o1
x	i	Oc1c(C(c2cccs2)N2CCN(c3cccc(Cl)c3)CC2)sc2ncnn12 (stereo not given)
>57	i	CC(=O)N1CC2(C)CN(C(C)=O)CC(C)(C1)C2O (stereo not given)
>26	x	COC(=O)C1=C(C)N=C2SC(C)C(=O)N2C1c1cccc(F)c1 (stereo not given)
>57	i	CCc1nnc(NC(=O)C2CCCN2S(=O)(=O)c2ccc(F)cc2)s1 (stereo not given)
x	i	O=C(CN(C1CCCCC1)S(=O)(=O)c1ccc(Cl)cc1)NCc1ccncc1
x	i	CCN(CC)c1ccc(/C=N/n2nnnc2N)c(O)c1
x	i	CC(C)Cc1cc(C(=O)NCc2cccs2)no1
x	i	CCOc1cc(Br)c(C(=O)O)cc1OCC

More structures
PK Bst	TsaE inh	SMILES
x	i	O=C(O)[C@@H](O)Cc1ccccn1
x	i	CC(C)[C@H](CO)Nc1nc(Nc2cc(N)cc(Cl)c2)c2ncn(C(C)C)c2n1
>11	x	COc1cc([C@@H]2c3cc4c(cc3[C@H](O)[C@H]3COC(=O)[C@H]23)OCO4)cc(OC)c1OC
x	i	N[C@]1(C(=O)O)CCc2cc(C(=O)O)ccc21
x	i	CCOC(=O)c1c(C)[nH]c(C(=O)OC)c1CCC(=O)OC
>57	i	Cc1n[nH]c(C)c1S(=O)(=O)N1CCC(C(=O)O)CC1
x	i	FC(F)(F)c1ccccc1-c1nccc(NCc2ccccc2)n1
>57	i	Cc1ccccc1NC(=O)N1C2CCCC1CC(NC(=O)C(C)(C)C)C2 (stereo not given)
x	i	CCN1C(=C2C(=O)c3ccccc3C2=O)C=Cc2ccccc21
x	i	COc1ccccc1CNC(=O)CS(=O)Cc1nc(-c2ccccc2C)oc1C (stereo not given)
x	i	CC(C)(C)c1ccc(O)c(O)c1
>57	i	Cn1c(=O)n(CCc2ccccc2)c(=O)c2c1nc1n2CCCN1c1ccccc1
>57	i	Cc1ccc(C)n1-c1cccc(C(=O)O)c1
x	i	O=C(NC(Cc1ccccc1)C(=O)N1CCCC1C(=O)O)c1ccccc1 (stereo not given)
>57	i	CC(C)C(C(=O)NCC1CCCO1)N(Cc1ccco1)C(=O)CNS(=O)(=O)c1ccccc1 (stereo not given)

Gathered by group: those above containing a tert-butyl group (6)
PK Bst	TsaE inh	SMILES
>57	i	Cc1cccc(N2CCN(C(c3cccs3)c3nnnn3C(C)(C)C)CC2)c1C (stereo not given)
x	i	CC(=O)N(CCCc1ccc(C(C)(C)C)cc1)CCCN(C)C
>26	x	Cc1noc(COc2ccccc2OCC(O)CNC(C)(C)C)n1 (stereo not given)
>57	i	CCOc1ccc2[nH]c(=O)c(CN(Cc3cccs3)Cc3nnnn3C(C)(C)C)cc2c1
>57	i	Cc1ccccc1NC(=O)N1C2CCCC1CC(NC(=O)C(C)(C)C)C2 (stereo not given)
x	i	CC(C)(C)c1ccc(O)c(O)c1

(next part)
PK Bst	TsaE inh	SMILES
>57	i	CC1CN(C(=O)c2cccs2)CCN1C(=O)c1cccs1 (stereo not given)
>57	i	O=C(O)c1cnc2ccccc2n1
>57	i	COc1ccc(C(=O)N2c3ccccc3CC2C)cc1OC (stereo not given)
x	i	CCOC(=O)c1ccc(N2C(=O)C3CC=CCC3C2=O)cc1 (stereo not given)
x	i	COC(=O)c1ccc(C(NC(=O)OCc2ccccc2)/C(F)=C/[C@@H](C)C(=O)NCc2cc(C)on2)cc1 (stereo not given in full)
>57	i	Cn1c(CCN2CCCCCC2)nc2cc(NC(=O)Nc3ccccc3)ccc21
x	i	CC(C)COC(=O)c1ccc(NC(=O)C2C3CCC(C3)C2C(=O)O)cc1 (stereo not given)

Compound profiles, as listed above.
Entry for Cn1c(CCN2CCCCCC2)nc2cc(NC(=O)Nc3ccccc3)ccc21 : PK Bst: >57; TsaE inh: i
Entry for CC(C)COC(=O)c1ccc(NC(=O)C2C3CCC(C3)C2C(=O)O)cc1 (stereo not given) : PK Bst: x; TsaE inh: i
